VDR inhibitor = Inhibitors of the vitamin D receptor (VDR): qHTS. Vitamin D3 receptor (Homo sapiens), P11473. VDR-SRC2-3 peptide fluorescence polarization, 2 h. Potency, µM, without a hit: max response, negative = inhibition, actives largely listed as inhibitors. 400,000 tested, 0.93% active; active = well fitted inhibition curve with a large enough effect; inconclusive = small, poorly fitted or top-dose-only effect, or another doubt; inactive = no such curve, though single readings can be large or run the other way; also: series mostly up to about 120 µM
Target sequence (P11473 whole entry, looked up): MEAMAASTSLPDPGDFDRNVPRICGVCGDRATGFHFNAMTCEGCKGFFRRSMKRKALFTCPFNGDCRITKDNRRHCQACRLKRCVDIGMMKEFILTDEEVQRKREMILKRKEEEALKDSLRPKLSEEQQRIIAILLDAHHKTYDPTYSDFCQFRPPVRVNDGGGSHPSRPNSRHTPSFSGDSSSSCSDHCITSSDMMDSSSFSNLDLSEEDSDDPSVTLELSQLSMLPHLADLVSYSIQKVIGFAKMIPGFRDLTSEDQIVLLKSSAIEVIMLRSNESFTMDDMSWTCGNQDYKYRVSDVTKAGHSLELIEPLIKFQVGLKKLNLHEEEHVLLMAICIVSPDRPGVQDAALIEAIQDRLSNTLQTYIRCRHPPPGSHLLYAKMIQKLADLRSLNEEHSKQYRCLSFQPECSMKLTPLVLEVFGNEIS
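Reagent solutions, kept cold and dark, are dispensed first; compounds are then pinned in at 23 nl, plates briefly spun, and incubated 2 h at ambient temperature. Inhibition of VDR–SRC2-3 peptide binding is read by fluorescence polarization.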
* marks the source's active call; other numbers are inactive results; ? = inconclusive. % is scaled to controls: 0 for no effect and ±100 for the full control effect; potency is read from the fitted curve at half-maximal effect. The list is partial; rates above refer to the full screens.

Molecule,VDR inhibitor
COc1cc2cc(C(=O)N3CCN(Cc4ccc5c(c4)OCO5)CC3)c(=O)oc2cc1OC,8%
O=C(NCc1cccc(Cl)c1)c1ccc2nc(N3CCCCC3)sc2c1,5%
NNC(=O)COc1ccc(-c2nccc(-c3ccc(F)cc3)n2)cc1,-19%
CC(C)NC(=O)CSc1nc2ccccc2n1CC(=O)N1CCc2ccccc21,-13%
C=CCNC(=O)CN(c1ccc(OC)cc1OC)S(C)(=O)=O,-17%
CCCN(C(=O)c1nc2nc(C)cc(C)n2n1)c1c(N)n(Cc2ccccc2)c(=O)[nH]c1=O,-6%
O=C1CCSC2(C(=O)N(Cc3ccc(F)cc3)c3ccccc32)N1c1ccc(Cl)cc1 (centres undefined),-15%
O=c1n(Cc2ccc(Cl)cc2)c2ccccc2c2nc(-c3ccccc3)nn12,-7%
CC(=O)c1nn(-c2cccc(Br)c2)cc1C(=O)c1ccc(C)cc1,3%
CC1(c2cc([N+](=O)[O-])cc([N+](=O)[O-])c2)CC(C)(C)N(C(=O)c2ccccc2)c2ccccc21 (centres undefined),-5%
Cc1ccc(S(=O)(=O)N2CCCN(Cc3nc4ccccc4c(=O)[nH]3)CC2)cc1,10%
Cn1nc(C(=O)NC2CCCc3ccccc32)ccc1=O (centres undefined),3%
O=C(CN1C(=O)NC2(CCOc3ccccc32)C1=O)c1cccs1 (centres undefined),-3%
CCOc1ccc(C(C(=O)Nc2ccc(F)cc2)N(C(=O)Cn2nnc3ccccc32)C2CC2)cc1 (centres undefined),-11%
O=[n+]1cc(-c2cccc3ccccc23)n([O-])c2c1CCC2,2%
O=C(CN1CC(c2ccccc2)CC1=O)OCc1cccc(Br)c1 (centres undefined),-1%
CCS(=O)(=O)N1CC(=O)N(c2ccc(Cl)cc2C)C(C)(C(=O)NC2CCCCC2)C1 (centres undefined),11%
CCOC(=O)c1ccc(NC(=O)CNC(=O)c2ccco2)cc1,-25%
CCOc1cc(/C=C\[N+](=O)[O-])ccc1OCC(=O)Nc1ccccc1C,4.5µM*
COc1cc(-c2nc(Cn3nnc(C(=O)Nc4ccccc4C)c3C)c(C)o2)cc(OC)c1OC,-21%
Cn1nnnc1SCC(=O)N1CCOCC1,0%
c1ccc2c(c1)CCCN2Cc1nnc2n1CCCCC2,8%
c1ccc(NCn2cncn2)nc1,11%
COc1ccc(Cn2ccc3nc(C)c(C(=O)N4CCN(c5cc(C)ccc5C)CC4)cc3c2=O)cc1,15%
CN(C)c1ccc(C2C3C(=O)N(c4ccc(C(=O)O)cc4)C(=O)C3ON2c2ccccc2)cc1 (centres undefined),7%
CN(C(=O)c1cccc(NC(=O)Cc2cccc(NC(=O)C3CCN(C(=O)C4CC4)CC3)c2)c1)C1CCC1,-27%
Fc1ccc(N2CCN(Cc3nnc(-c4ccccc4Cl)o3)CC2)cc1,-2%
O=c1c2c(n3cnnc3n1-c1ccccc1)-c1ccccc1CC21CCCC1,-16%
COc1ccc(C(=O)N2CCC3(CCN(CC(C)C)CC3)CC2)cc1,-2%
CCOc1ccc2nc(SCC(=O)NC3CCS(=O)(=O)C3)[nH]c2c1 (centres undefined),-6%
CC(C)Cc1nn2c(=O)cc(COC(=O)c3ccccc3NC(=O)c3cccs3)nc2s1,0%
COc1ccc(-c2ccc([C@H]3[C@H]4C=CC[C@@H](C)[C@@H]4C(=O)N3Cc3ccccc3)c(F)c2)cc1C,-20%
CC(C)OC(=O)C1C(=O)CC(C)(O)C(C(=O)OC(C)C)C1c1ccccc1 (centres undefined),15%
CCC(=O)Nc1ccc2c(c1)C(=O)N(C1CCCCC1)C2=O,7%
CCCCC(=O)NS(=O)(=O)c1ccc(N=NN(CC)CC)cc1,6%
CCc1cc(=O)oc2cc(C)c(CN3CCCCC3)c(O)c12,?
COc1ccc(OCCOC(=O)c2cc(S(=O)(=O)N3CCOCC3)c(Cl)cc2Cl)cc1,-18%
COc1ccc(N2C(=O)C3C4C=CC(c5ccccc5)(C3C2=O)C2C(=O)N(c3ccc(OC)cc3)C(=O)C42)cc1 (centres undefined),-6%
CC(C)c1ccccc1NC(=O)CSc1nnc(COc2ccccc2Cl)o1,-19%
COc1ccc(-n2nc(C(=O)NCC(=O)NCc3ccccc3OC)c3ccccc3c2=O)cc1,-2%

In a second layout: results already given.
VDR inhibitor,molecule
6%,CCCCC(=O)NS(=O)(=O)c1ccc(N=NN(CC)CC)cc1
?,CCc1cc(=O)oc2cc(C)c(CN3CCCCC3)c(O)c12
7%,CCC(=O)Nc1ccc2c(c1)C(=O)N(C1CCCCC1)C2=O

Next results:
Molecule,VDR inhibitor
N#Cc1ccccc1NC1=CC(=O)CCC1,-4%
Nc1ccnc(Oc2ccc(F)cc2)c1,0%
COc1ccc(-c2[nH]c3ccccc3c2SCCNC(=O)c2cc(OC)c(OC)c(OC)c2)cc1,-3%
COc1ccc(CN(C)C(=O)c2ccccc2Sc2ccccc2C#N)c(OC)c1,5%
O=C1NN(c2ccccc2)C(=O)/C1=C/c1ccc(-c2ccc(C(=O)O)cc2)o1,?
Cn1c(Sc2ccc(C(F)(F)F)cc2[N+](=O)[O-])nnc1-c1ccccc1,4%
CC(C)C(=O)Nc1cccc(C(=O)Nc2nnc(C(F)(F)F)s2)c1,-23%
CCC(=O)Nc1nc2ccc(S(C)(=O)=O)cc2s1,6%
COc1ccc(C(=O)c2ccc(OC)cc2O)c(O)c1,19%
CCC(C)Sc1cccc(-c2nc3ccc(C)cn3c2NCc2ccccc2)c1 (centres undefined),-8%

Sorted by value in VDR inhibitor (descending): some entries from above.
SMILES	VDR inhibitor
COc1ccc(C(=O)c2ccc(OC)cc2O)c(O)c1	19%
CCC(=O)Nc1nc2ccc(S(C)(=O)=O)cc2s1	6%
Nc1ccnc(Oc2ccc(F)cc2)c1	0%
COc1ccc(-c2[nH]c3ccccc3c2SCCNC(=O)c2cc(OC)c(OC)c(OC)c2)cc1	-3%
CC(C)C(=O)Nc1cccc(C(=O)Nc2nnc(C(F)(F)F)s2)c1	-23%

(continued)
molecule	VDR inhibitor
Cc1cc(=O)[nH]c2nnc(SCC(=O)NC(C)(C)C)n12	0%
O=C(Nc1ccc(Nc2ccccc2)cc1)C(Cl)Cl	5%
CNC(=O)CSc1nc2[nH]ncc2c(=O)[nH]1	-1%
Cn1nc(C(F)(F)F)c(-c2cccc(C(F)(F)F)c2)c1NC(=O)c1ccco1	2%
Cc1ccc(CCNC(=O)c2ccc3c(=O)n(-c4ccccc4)c(=O)[nH]c3c2)cc1	-11%
CC(=O)c1cc(CC=C(C)C)c(O)c(CC=C(C)C)c1O	1%
Cc1nc2ccccc2n1CCC(=O)O	-8%
CC(=O)O/N=C(\N)Cc1ccc(-c2csnn2)cc1	-11%
CCOc1ccc(CNC(=O)c2ccc(CS(=O)Cc3ccc(Cl)cc3)o2)cc1 (centres undefined)	9%
COc1ccc(C2C=C(c3ccccc3)Nc3nc(NC(=O)c4ccc(C)cc4)nn32)cc1 (centres undefined)	6%
Nc1nonc1C(=O)N/N=C/c1cc(Br)ccc1O	11%
Cc1cc(OC(C)C(=O)NCCN2CCOCC2)c2c(C)cc(=O)oc2c1 (centres undefined)	-18%
COc1cccc(CN2C(=O)CN(C3CCCCC3)C(=O)C2c2ccc(F)cc2)c1 (centres undefined)	-2%
NS(=O)(=O)c1ccc(CCNC(=O)NC2CCCCC2)cc1	13%
COc1ccc(Cn2c(=O)c3cccnc3n(Cc3cccc(OC)c3)c2=O)cc1	-2%
Cc1cccc(N2CC(C(=O)Nc3cccc(S(=O)(=O)N4CCCCC4)c3)CC2=O)c1C (centres undefined)	1%
Cc1ccc(C(=O)Nc2ccccc2NC(=O)c2ccc(C)o2)o1	0%
CN=C1NN=C(c2cc(C)n(-c3ccc(Cl)cc3)c2C)CS1	-28%
CCOC(=O)C1CCN(S(=O)(=O)c2ccc(-c3ccccn3)s2)CC1	-15%
OC1(c2ccc3c(c2)OCO3)CCN(Cc2ccccn2)CC1	?
CC(C)(O)C#Cc1ccc(C(=O)N2CCN(c3ccc(Cl)cc3)CC2)cc1	11%
CS(=O)(=O)NC(=O)CCC/C=C\C[C@H]1C(=O)C[C@@H](O)[C@@H]1/C=C/[C@@H](O)COc1ccccc1	-29%
Cc1cccc(C(=O)Nc2cccc(C(=O)OCc3cc(=O)n4c5c(sc4n3)CCCC5)c2)c1	7%
CC(C)CN1CCC2(CC1)CCN(S(=O)(=O)c1ccccc1)CC2	-9%
Cc1cc2nc(-c3ccc(OCc4ccccc4)cc3)cc(C(F)(F)F)n2n1	1%
CCC(C)NS(=O)(=O)c1ccc(OCC(=O)NCc2cccnc2)cc1 (centres undefined)	-1%
Cc1ccc(NC(=O)c2c(C)cc(C)nc2SCC(=O)Nc2ccc(Br)cc2)cc1	3%
O=C(CCCCC(=O)OCC1COCO1)OCC1COCO1 (centres undefined)	13%
CS(=O)(=O)NN1C(=O)c2ccccc2NC1c1ccccc1 (centres undefined)	3%
N#C/C(=C\c1ccc(O)cc1)C(=O)N1CCCC1	5%
COc1ccccc1C1CC(c2ccccc2)=NN1C(=S)Nc1ccccc1 (centres undefined)	-7%
Cn1nc(C(=O)N2CCCc3ccccc32)c2ccccc2c1=O	-2%
O=c1c2ccc([N+](=O)[O-])cc2ncn1CCOc1ccccc1	0%
Cc1ccc2cc(C#N)c(N3CCCN(S(=O)(=O)c4ccccc4)CC3)nc2c1	7%
Cc1nn(C)c(C)c1CN(Cc1nc(CCC(C)C)no1)C(C)C	-2%
Cn1c(=O)c2[nH]c(C(O)c3ccc(Cl)cc3)nc2n(C)c1=O (centres undefined)	-16%
Cc1cc(C)c2nc(SCC(=O)Nc3ccccc3N3CCOCC3)c(C#N)cc2c1	-8%
CCCCNC(=O)c1ccc(SCC(=O)N(CC)CC)c([N+](=O)[O-])c1	-11%
O=C(COc1ncnc2sccc12)Nc1ccc(F)cc1F	-11%
CC1CCN(c2nc3c(c(=O)[nH]c(=O)n3C)n2Cc2ccccc2)CC1	-23%
Cc1cccc(CNC(=O)c2ccc3c(c2)N(C)C(=O)C2CCCCN32)c1 (centres undefined)	-5%
COc1cc(/C=C/CNC[C@H]2O[C@@H](n3ccc(=O)[nH]c3=O)[C@H](O)[C@@H]2O)ccc1O	4%
C#CCn1c(=NC(=O)c2ccc3c(c2)OCCO3)sc2cc(OC)c(OC)cc21	13%
Cc1cccc(C)c1NC(=O)C(=O)NCC(c1ccc2c(c1)OCO2)N1CCN(C)CC1 (centres undefined)	7%
O=C(c1ccncc1)N1CCN(c2ccc3ccccc3n2)CC1	-20%

Ordered by molecular weight (descending): some entries from above.
molecule	VDR inhibitor
Cc1cc(C)c2nc(SCC(=O)Nc3ccccc3N3CCOCC3)c(C#N)cc2c1	-8%
Cc1ccc2cc(C#N)c(N3CCCN(S(=O)(=O)c4ccccc4)CC3)nc2c1	7%
Cc1nn(C)c(C)c1CN(Cc1nc(CCC(C)C)no1)C(C)C	-2%
O=C(COc1ncnc2sccc12)Nc1ccc(F)cc1F	-11%
Cn1nc(C(=O)N2CCCc3ccccc32)c2ccccc2c1=O	-2%

Going on with the list:
molecule	VDR inhibitor
CCOC(=O)c1c(C)nc2sc(C(N)=O)c(N)c2c1-c1ccc(OC)cc1	10%
O=C1Nc2cc(Cl)c(Cl)cc2N(O)N1c1ccccc1	5%
COc1ccc(S(=O)(=O)NCC(c2ccco2)S(=O)(=O)c2cccs2)cc1OC (centres undefined)	-1%
CCCCNC(=O)C1CCN(S(=O)(=O)CCC)CC1	11%
CCn1cc([N+](=O)[O-])c(C(=O)N2N=C(c3ccc(OC)cc3OC)CC2c2ccccc2O)n1 (centres undefined)	-8%
S=c1[nH]nc(-c2cc(-c3ccccc3)n[nH]2)n1/N=C/C=C/c1ccccc1	-11%
CCCCCCCCS(=O)CCC(=O)O (centres undefined)	5%
CCOP(=O)(OCC)C(Nc1ccc(F)cc1)c1ccccc1 (centres undefined)	-9%
Cc1ccc(NC(=O)CSc2nnc(-c3ccco3)o2)cc1	-3%
CCc1ccc(Oc2nc3c(C)cccn3c(=O)c2/C=C(\C#N)c2nc3ccccc3s2)cc1	?
C=CCNC(=O)/C(C#N)=C/c1c(N2CC(C)OC(C)C2)nc2ccccn2c1=O (centres undefined)	-10%
ClCCn1cnc2c(SCc3ccccc3Cl)ncnc21	6%
COc1ccc2[nH]c(C)c(CCNC(=S)Nc3cccc(C)c3C)c2c1	2%
CCOC(=O)CSc1nc2c(sc(=S)n2-c2ccc(OCC)cc2)c(=O)[nH]1	4%
CCc1noc(N)c1C(=O)Nc1ccc(Cl)cc1	-19%
Cc1cccc(N2CCN(S(=O)(=O)c3ccc(-c4ccc(=O)[nH]n4)o3)CC2)c1C	0%
COc1ccccc1-c1ccc(Nc2ccc(C(=O)N3CCOCC3)cc2)nn1	-4%
CC(C)c1ccc2c(c1)C(N1CCN(C)CC1)Cc1cccnc1S2 (centres undefined)	-4%
COc1ccc(N2CCN(c3ccc(Cl)nn3)CC2)cc1	9%
COc1ccc(-c2nn(-c3ccc(F)cc3)c3c2cnc2ccc(F)cc23)cc1OC	-19%
CCC(Sc1nc2ccccc2s1)C(=O)Nc1cc(C)on1 (centres undefined)	7%
CCCCNC(=O)CCCCCn1c(=O)[nH]c2cc(OC)c(OC)cc2c1=O	-8%
COc1ccc(CCNC(=O)CN2CCC(C(N)=O)CC2)cc1	-5%
Cc1ccc(NC(=O)CSc2nnc3ccc(-c4cccnc4)nn23)cc1	0%
COc1ccc(NC(=O)c2cc(-c3cccnc3)nc3ccc(C)cc23)cc1OC	11%
COc1ccc(CCNC(=O)CCCn2c(SCC(N)=O)nc3cc4c(cc3c2=O)OCO4)cc1OC	26%

Bioassay records as filed in PubChem.
